Arbovirus anti: blocks arbovirus infection. arbovirus infection cell-based antiviral screen. inhibition, % at 10 µM. hit rate 0.37% among 200,000. AID 1251;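 active means inhibition from about 30%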;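 further: bluetongue infection of BSR cells; cell survival read as ATP light after 72 h; 0% = infected wells without compound and 100% = uninfected wells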
YopH inh: inhibitors of Yersinia enterocolitica YopH tyrosine phosphatase. fluorescence Ex485/Em525. inhibition, %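 (about 10 µM by stock and volumes)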. hit rate 0.16% among 140,000;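 active means inhibition of 50% or more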;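 further: controls were vehicle for no effect and minimum signal wells for full effect; inactives centre near -20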
Mtb H37Rv: M. tuberculosis H37Rv growth inhibitors, H37Rv strain (AID 1626); M. tuberculosis H37Rv growth inhibition; higher % means a stronger effect; one-dose inhibition, % at 10 µM; IC50 in µM for titrated hits; hit rate 0.95% among 220,000;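 active means confirmed in a dose series; inconclusive means inhibition above 80% but not taken into the dose series; inactive means below 80% or under 30% at every dose of the series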;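 further: bacteria incubated seven days before Alamar blue readout; 0% = bacteria only wells and 100% = bacteria with antibiotic wells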
RecA splice inh: Mtb RecA intein splicing inhibition | P9WHJ3 | cell-free RecA intein splicing, fluorescence | inhibition, %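 (about 9 µM by stock and volumes)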 | hit rate 0.75% among 290,000 | AID 2221; in the data active means inhibition above about 30%; inconclusive means no clear call, values can overlap the other calls;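 further: 0% = vehicle wells and 100% = reference inhibitor control wells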
Target sequence (P9WHJ3 whole entry, looked up, canonical isoform): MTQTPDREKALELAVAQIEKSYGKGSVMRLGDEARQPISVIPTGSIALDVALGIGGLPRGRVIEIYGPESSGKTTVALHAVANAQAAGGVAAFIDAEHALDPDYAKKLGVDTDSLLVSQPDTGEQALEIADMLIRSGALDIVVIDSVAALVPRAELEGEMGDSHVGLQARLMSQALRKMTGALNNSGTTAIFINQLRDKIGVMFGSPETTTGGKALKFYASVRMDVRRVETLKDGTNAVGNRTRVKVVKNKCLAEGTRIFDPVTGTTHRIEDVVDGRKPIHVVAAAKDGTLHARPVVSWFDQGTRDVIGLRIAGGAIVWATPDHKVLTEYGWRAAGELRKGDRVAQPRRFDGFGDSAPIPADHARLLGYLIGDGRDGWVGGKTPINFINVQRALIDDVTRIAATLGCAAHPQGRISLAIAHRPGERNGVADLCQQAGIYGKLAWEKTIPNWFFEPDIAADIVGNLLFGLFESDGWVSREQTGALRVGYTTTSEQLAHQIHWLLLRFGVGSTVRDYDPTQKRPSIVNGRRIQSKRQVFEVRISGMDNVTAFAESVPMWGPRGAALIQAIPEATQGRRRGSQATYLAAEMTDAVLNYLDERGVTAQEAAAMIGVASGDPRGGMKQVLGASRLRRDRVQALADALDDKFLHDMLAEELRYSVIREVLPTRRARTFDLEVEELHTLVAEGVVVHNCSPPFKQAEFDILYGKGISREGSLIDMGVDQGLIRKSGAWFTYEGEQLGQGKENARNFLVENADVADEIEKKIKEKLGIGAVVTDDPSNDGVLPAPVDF
Mtb bLac sens: beta-lactam sensitization of Mtb H37Rv; M. tuberculosis H37Rv growth with meropenem, percent inhibition; hits of this screen are not shown here; inhibition, % at 25 µM; hit rate 0.27% among 330,000; AID 434955;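 active means about 74% or more and at least 40 points above the plate without the antibiotic, then above 30% in a dose series; inconclusive means first-round hits that could not be retested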;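 further: growth measured after seven days incubation then overnight dye step; 0% = bacteria only wells and 100% = bacteria with antibiotic; twin plates without the antibiotic show which effects depend on it; some results filed as inactive read as strong as hits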
Arbovirus anti repeat: further read-out of Arbovirus anti, marked with its call; inhibition, %; measured here: 10K subset replicate screen; many hits read low in the repeat;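 first of two repeat runs on a subset; 0% = infected and 100% = uninfected wells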
An asterisk follows results filed as active; ? = inconclusive; · = no result given. Only part of the results is shown. The share of hits here may be higher or lower than overall.

SMILES	Arbovirus anti	YopH inh	Mtb H37Rv	RecA splice inh	Mtb bLac sens	others
COC(=O)Nc1ccc(S(=O)(=O)N2CCCC(C(=O)NC3CCCCC3)C2)cc1 (configuration not stated)	13	·	-7%	1.7	-6
COc1ccc(OC)c(Nc2nc(-c3sc(NC(=O)c4ccccc4)nc3C)cs2)c1	-25	13	-4%	-2.9	1
Cc1cccc(N2CC(O)(c3cccs3)[N+]3=C2CCCC3)c1C (configuration not stated)	-7	·	0%	2.4	-1
O=C(NCc1ccccn1)c1coc(=O)c(Br)c1	14	-13	1%	-3.1	-4
CCOC(=O)N1CCN(Cc2nc(N)nc(Nc3ccc(C)cc3)n2)CC1	10	-10	10%	0.3	24
CN(C)C(=O)CSc1nnc(-c2cnccn2)n1C	2	-12	-2%	-0.6	-2
O=C(CCN1C(=O)c2ccc([N+](=O)[O-])cc2C1=O)Nc1ccccc1C(=O)O	·	·	-7%	-8.8	-3
Cc1ccc(C)c(S(=O)(=O)NCC(=O)N2CCCC2)c1	·	·	·	-0.2	-3
O=C(/C=C/c1ccc(Cl)c([N+](=O)[O-])c1)Nc1ccc(NC(=O)c2ccco2)cc1	-3	-29	4%	-4.7	·
Cc1cccc(NC(=O)CN(C)S(=O)(=O)c2cccc3cccnc23)c1	2	-41	-14%	1.3	4	Arbovirus anti repeat=9
Brc1cc2ccccc2[n+](Cc2ccccc2)c1	·	·	·	-0.5	1
Fc1ccc(-c2cc(-c3cccs3)cc(-c3ccccc3)n2)cc1	·	·	-11%	1.0	1
CCN1C(=O)c2cccc3c(S(=O)(=O)N(C(=O)c4ccncc4)c4ccc(OC)cc4)ccc1c23	20	-36	10%	23	7
COc1ccc(-n2ncc3c(=O)n(CC(=O)N4c5ccccc5CC4C)cnc32)cc1 (configuration not stated)	2	-20	-8%	0.2	-6
Cc1ccc(C)c(NC(=O)COC(=O)c2ccc3c(c2)OCO3)c1	10	·	7%	1.0	4
CCN(C(=O)Cn1nnc(-c2ccccc2)n1)C1CCS(=O)(=O)C1 (configuration not stated)	·	·	·	0.9	2
Cc1ccc(-n2c(O)cnc2Nc2nc(C)cc(C)n2)cc1	6	-37	·	-2.1	-5
CCOc1ccc(S(=O)(=O)N2CCCC(C(=O)NCc3cccnc3)C2)cc1C (configuration not stated)	·	·	·	-0.3	-15
N#Cc1ccsc1NC(=O)c1cccc([N+](=O)[O-])c1	-6	·	-3%	-0.1	-4
Cc1ccc(NC(=S)N(CCCN2CCOCC2)Cc2cccnc2)cc1C	16	·	2%	-1.5	-8
O=C(Nc1nc(-c2cccs2)cs1)C1=COCCO1	1	-18	6%	2.4	-5
Cc1cc(C)nc(N/N=C/c2ccc([N+](=O)[O-])o2)n1	·	·	·	5.1	100
O=C(O)/C=C/c1ccc2ccccc2n1	14	-36	-2%	1.4	22
O=c1cc(CSc2nnc(COc3ccc(Cl)cc3)o2)c2ccccc2[nH]1	6	-3	-4%	-2.5	3
CS(=O)(=O)Nc1ccccc1C(=O)NCCSc1ccc(Cl)cc1	·	·	·	1.5	-2
Nc1cccc(C(=O)Nc2cccc3ncccc23)c1	·	·	·	-6.1	0
O=C(COC(=O)C1CCN(S(=O)(=O)c2cc([N+](=O)[O-])ccc2Cl)CC1)Nc1ncc(Cl)cc1Cl	12	-175	-3%	-2.4	1
Cc1c(=O)n(OCc2ccc(Cl)cc2)c2ccccc2[n+]1[O-]	1	·	5%	2.9	1
Nn1cnnc1SC1CCCCC1NS(=O)(=O)c1ccccc1 (configuration not stated)	-10	10	-3%	-6.4	5
Cc1ccc(NC(=S)NNC(=O)c2c([N+](=O)[O-])c(C)nn2C)cc1	-2	-9	-4%	0.7	-13
Cc1sccc1/C=N/NC(=O)c1cccc2ccccc12	-8	-9	3%	0.2	2
Brc1ccc(OCc2nnc(SCC3CCCCC3)o2)cc1	8	-4	12%	4.2	8
CCCN1C2=NCCN2c2cc(C)c(C)cc21	19	-35	3%	-0.4	-4
COc1ccccc1CNC(=O)c1ccccc1NC(=O)C1=C(C)OCCS1	·	·	·	6.2	-4
Cc1ccc(S(=O)(=O)N2CC(O)CC2C(=O)O)cc1 (configuration not stated)	·	·	·	2.3	-3
Cc1ccc(OCCCC(=O)N(C)CC(=O)Nc2ccccc2Cl)cc1	·	·	·	0.7	0
O=C(CCl)NCCCCCCCCCNC(=O)CCl	14	-17	78%	4.3	98
COc1ccc(CCC(=O)NNC(=O)Nc2cccc(Cl)c2)cc1	·	·	·	2.9	-5
CCCCn1c(=O)[nH]c(=O)c2c1nc(-c1ccc(-c3ccccc3Br)o1)n2CC	4	-33	-2%	2.7	5
O=C(Nc1cc(=O)c2ccccc2o1)N1CCOCC1	2	-55	-5%	-0.9	-20	Arbovirus anti repeat=2
COc1ccc(S(=O)(=O)Cc2ccc(C(=O)N3CCC4(CC3)OCCO4)o2)cc1	1	-29	-3%	-0.2	-5
CCOC(=O)C1CCCN(S(=O)(=O)c2ccc(OC)c3ccccc23)C1 (configuration not stated)	-6	14	-7%	4.7	-7
Cc1nc(NCc2ccco2)c2c3c(sc2n1)CCC3	-18	-36	-2%	-5.2	33
CCCc1cc(=O)n2[nH]c(-c3ccc(Br)cc3)cc2n1	-13	-4	57%	2.3	11
CCCCOc1cccc(OCC(=O)Nc2nc3ccccc3[nH]2)c1	4	-24	?	2.4	96
COc1ccc(CN2CCN(S(=O)(=O)c3ccccc3)CC2)c(OC)c1	7	-32	7%	2.6	-6
CCN(CC)C(=O)CSc1nc(COc2ccccc2)nc2ccccc12	·	·	·	8.5	-14
O=C(CN1CCN(S(=O)(=O)c2ccccc2)CC1)Nc1cccc(C(F)(F)F)c1	-17	-41	-5%	3.2	-4
Cc1ccccc1OC(=O)n1c(=S)oc2cc(Cl)ccc21	4	-16	-1%	13	0
COc1cc(/C=C\C(=O)NCc2ccc3c(c2)cc(C)n3C)cc(OC)c1OC	-6	-18	6%	0.9	7
CN(Cc1ccccc1)C(=O)CN1C(=O)COc2ccc(S(=O)(=O)N3CCCC3)cc21	·	·	·	-0.6	6
Cc1cccc(CN2CCSc3sccc3C2=O)c1	-2	·	9%	2.5	4
COc1ccc2cc(OCC(=O)NNC(=O)Nc3ccc(F)cc3)ccc2c1	·	·	·	-6.2	-5
CCC(=O)N1CCc2cc(S(=O)(=O)NCCC(=O)N3CCN(Cc4ccccc4)CC3)ccc21	6	-33	-7%	-0.2	-6
Cc1cccc(Cn2c(C(C)O)nc3ccccc32)c1 (configuration not stated)	6	-18	1%	-0.5	6
CCn1c(-c2cc(-c3ccc(OC(C)C)cc3)nc3ccccc23)n[nH]c1=S	10	-1	6%	8.7	45
Nc1ncc2c(n1)-c1cc(Cl)ccc1SC2	-1	·	1%	0.8	3
Cc1nnc(SCC(=O)Nc2ccc3c(c2)OCO3)n(N)c1=O	0	·	-5%	-0.7	-6
Cc1cc(O)c2c(C)c(CC(=O)N3C[C@H]4C[C@@H](C3)c3cccc(=O)n3C4)c(=O)oc2c1	·	·	·	-3.1	3
COc1cccc(-c2cn(C[C@H]3CC[C@@H]([C@@H]4CC[C@H](Cn5cc(-c6cccc(OC)c6)nn5)O4)O3)nn2)c1	·	·	·	-1.2	-3

New compounds follow.
SMILES	Arbovirus anti	YopH inh	Mtb H37Rv	RecA splice inh	Mtb bLac sens	others
C=C(C)C(=O)Nc1cccc(C2=NOC3(C2)C[C@H](C(N)=O)N(C(=O)COc2ccc(Cl)cc2)C3)c1 (some centres not stated)	·	·	5%	0.0	-5
Cc1ccc(CNC(=O)c2ccc(Cn3nc(C)cc3C)o2)cc1	·	·	·	-0.1	-1
CCN1C(=O)[C@H]2[C@@H](c3ccc(SC4CCCCC4)c(OC)c3)N3CCCC[C@@]3(C(=O)OC)[C@H]2C1=O	·	·	·	9.1	-3
C(=C\c1ccc2ccccc2n1)/c1ccccc1	·	·	0%	7.8	3
Cc1noc(/C=C/N(C)C)c1S(=O)(=O)N1CCN(c2ccccc2)CC1	4	·	-1%	-2.1	-7	Arbovirus anti repeat=2
S=c1nc(-c2ccccc2)[nH]c2ccc(Br)cc12	·	·	19%	2.9	28
Cc1ccccc1N=C1NC(=O)/C(=C/c2cccn2C)S1	·	·	9%	2.0	-3
COc1cc2ncnc(NCc3ccccc3)c2cc1OC	2	-24	3%	-1.0	-7
COc1cccc(-c2noc(CCCC(=O)Nc3ccc(C(N)=O)cc3)n2)c1	1	·	-3%	0.2	-12
O=C(OCCN1C(=O)c2ccccc2C1=O)c1cc(S(=O)(=O)N2CCOCC2)ccc1F	8	-27	4%	-0.8	-10
Cc1cccc(N2C(=O)CC(NNc3nc4ccccc4s3)C2=O)c1 (configuration not stated)	-3	-18	0%	2.2	0
CCOC(=O)N1CCN(C(=S)NC2CCCCC2)CC1	2	-32	-2%	-7.3	-3
O=C1CCc2cc(S(=O)(=O)NCCc3ccccc3)cc3c2N1CC3	·	·	·	-1.1	-5
COc1ccccc1N1CCN(C2CC(=O)N(c3cccc(Cl)c3)C2=O)CC1 (configuration not stated)	·	·	·	0.0	4
CCCCC(=O)Nc1nnn(CCC)n1	6	-8	16%	-1.0	0
CCC(OC(=O)c1cc2sccc2n1C)C(=O)NCc1ccco1 (configuration not stated)	0	-39	-4%	·	5
COc1cc(/C=C2/C(=O)NN(c3ccccc3)C2=O)cc(Br)c1O	·	·	·	-1.2	7
OCCOCCOc1ccc(-c2nn[nH]n2)cc1	4	·	-6%	-9.7	-6
N#C/C(=C/c1cn(CC(=O)O)c2ccccc12)C(=O)Nc1ccccc1	1	·	12%	-6.6	5
CN(C)CCn1c(COc2ccccc2)nc2ccccc21	·	·	·	0.8	-1
CN(C)C(=O)COc1ccc2cc(-c3ccccc3)c(=O)oc2c1	-6	17	-3%	-5.0	2
CCCCOc1ccc(CN2CCCCC2)cc1	-21	-10	7%	1.7	1
CC(C)(C)n1nnnc1CN1CCN2CCCC2C1 (configuration not stated)	-6	0	-4%	2.6	-2
Cc1ccc2c(c1)C(=O)CC(c1ccc3c(c1)OCCO3)O2 (configuration not stated)	·	·	·	3.5	6
O=C(Cc1ccsc1)NNC(=O)c1cccc(Cl)c1	·	·	·	-0.9	-14
CCOC(=O)c1c(/N=C/c2cccc([N+](=O)[O-])c2O)sc(C)c1C	0	-12	5%	-5.0	?
CC(C)c1nc2cc(C(=O)N(C)C3CCOCC3)ccc2o1	·	·	·	0.8	?
CN(Cc1cccc2cnccc12)C(=O)CCc1nnc(CCc2ccccc2)o1	7	·	3%	-1.4	-2
O=c1[nH]c(-c2ccccc2)nc(-c2ccccc2)c1Cl	·	·	·	2.2	-11
O=C1C2=C(CCCC2)C(=O)N1CNc1ccccc1	·	·	-14%	0.0	-5
CCOc1ccc(NC(=O)N2CCCC2C(=O)NCC2CCCO2)cc1 (configuration not stated)	4	·	-5%	4.6	2
COc1ccc(OCC(=O)Nc2ccc(C)cc2)cc1	-1	-42	5%	1.5	84
Cn1nc(-c2ccccc2)cc1NC(=O)c1cccs1	·	·	-2%	-0.6	-4
O=C(CSc1nccn1-c1ccccc1)N1CCc2ccccc21	4	-19	1%	4.2	-2
COCCNc1nnc(SCC(=O)NNC(=O)c2ccccc2)s1	16	·	1%	-2.4	1
Cc1ccc(-n2c(=O)[nH]c3c(C(N)=O)nc(-c4ccc(C)o4)nc32)cc1	-1	-35	·	2.4	5
Cc1ccc(-c2c(C(=O)N/N=C/c3sccc3C)nnn2-c2nonc2N)cc1	·	·	·	0.0	5
CCOC(=O)n1c(=O)n(Cc2ccc(F)cc2)c2ccccc21	-3	·	9%	2.3	0
Cc1cc(N2CCN(S(=O)(=O)c3ccc(Br)cc3)CC2)n2ncnc2n1	4	·	6%	-2.3	-8
COC(=O)CCCCCN1C(=O)NC(c2ccc(-c3ccccc3)cc2)C(C(=O)OCc2ccccc2)=C1C (configuration not stated)	-2	-25	10%	1.7	-2
CN(C)S(=O)(=O)c1c(Cl)cccc1Cl	4	-19	1%	-2.9	?
Nc1o[nH]c(=O)c1Cc1ccccc1	·	·	-2%	0.2	·

An excerpt from above in order of SMILES length, highest first.
SMILES	Arbovirus anti	YopH inh	Mtb H37Rv	RecA splice inh	Mtb bLac sens	others
COC(=O)CCCCCN1C(=O)NC(c2ccc(-c3ccccc3)cc2)C(C(=O)OCc2ccccc2)=C1C (configuration not stated)	-2	-25	10%	1.7	-2
Cc1cc(N2CCN(S(=O)(=O)c3ccc(Br)cc3)CC2)n2ncnc2n1	4	·	6%	-2.3	-8
CCOc1ccc(NC(=O)N2CCCC2C(=O)NCC2CCCO2)cc1 (configuration not stated)	4	·	-5%	4.6	2
CCOC(=O)n1c(=O)n(Cc2ccc(F)cc2)c2ccccc21	-3	·	9%	2.3	0
CN(C)S(=O)(=O)c1c(Cl)cccc1Cl	4	-19	1%	-2.9	?
Nc1o[nH]c(=O)c1Cc1ccccc1	·	·	-2%	0.2	·

Source: PubChem BioAssay (several laboratories)
